Sa ugtP lethal: growth inhibition of S. aureus ugtP deletion strain | S. aureus RN4220 ugtP deletion, OD600 growth, 16 h; some inactives read as strong as hits | 330,000 tested, 0.54% active | growth inhibition, % (concentration not given with the values);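 active = z-score under -3 and OD600 up to 0.15 on both plates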;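 note: plate controls were untreated wells for no effect and antibiotic for full effect; wells of about 80 µL received 100 nL stock; the first replicate is given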
BJeLR lethal: kills HRASV12-expressing BJeLR cells. 300,000 tested, 0.17% active. inhibition, % (test concentration not listed). BJeLR (HRASV12) viability, CellTiter-Glo ATP luminescence, 48 h; reference of the scale not given here;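 active = replicate mean above 50%; inconclusive = above 50% but judged a plate artefact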;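 note: 50 nL library stock added to about 25 µL; numbers are from one replicate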
Mtb hypoxia inh: reduces hypoxia-regulated biosensor signal in M. tuberculosis. M. tuberculosis hypoxia-regulated fluorescent reporter, fluorescence. fluorescence inhibition, % (test concentration not listed). 300,000 tested, 0.1% active;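 active = 35 to 45% if threefold the growth effect, above 45% if 1.5-fold the growth effect; inactive = the rest, general growth blockers included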;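 note: wells of about 50 µL received 100 nL stock; 0% = vehicle wells and 100% = reference inhibitor wells; whole bacteria with a GFP reporter of the hypoxia response; strong numbers were not always called active; many hits fall short of the cut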
PrP 5UTR inh: suppresses PrP 5' UTR mRNA reporter expression; cell-based PrP 5' UTR mRNA reporter, plate reader; inhibition, % (test concentration not listed); 340,000 tested, 0.35% active; AID 488862;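 active = every replicate at 50% or more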;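 note: 0 = median of the neutral control wells; tested in H4 reporter cells; numbers are from one replicate; inactives centre near -14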
RN4220 kill: S. aureus RN4220 growth inhibition; OD600, 16 h; inhibition, % (no concentration beside the values); 330,000 tested, 0.33% active; AID 1259311;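 active = z-score of -3 or lower and OD600 up to 0.18 on both plates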;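 note: plate controls were untreated cells for no effect and reference antibiotic for full effect; stock transfer was 100 nL into about 80 µL; one replicate is shown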
Autofluor counter: counter-screen for toxin protease inhibitors: compound fluorescence; fluorescence intensity (concentration not given with the values); AID 624483; compound autofluorescence counterscreen, microsphere flow cytometry; hits give high values; 360,000 tested, 3.1% active;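 active = at least 3 SD above the mean of all compounds, about 16000 in these data; inconclusive = too few beads counted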;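 note: 100 nL of 1 mM stock went into each well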
Mtb hypoxia inh growth: also measured in Mtb hypoxia inh; calls as there; growth inhibition, %; measured here: M. tuberculosis growth (absorbance);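 0% = vehicle and 100% = reference antibiotic; read after six days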
Numbers without * were called inactive; ? = inconclusive; nt = not tested or not shown; & = joins results of further samples; ! = repeats disagree.

SMILES	Sa ugtP lethal	BJeLR lethal	Mtb hypoxia inh	Mtb hypoxia inh growth	PrP 5UTR inh	RN4220 kill	Autofluor counter
O=C(O)c1ccc(COc2ccccc2/C=C2\NC(=O)N(Cc3ccc(F)cc3)C2=O)cc1	2	-3	6	0	-14	7.5	3348
CCC1CCCCN1S(=O)(=O)c1ccc(C(=O)Nc2nnc(-c3ccccc3Cl)o2)cc1 (stereo not drawn)	98*	17	5	-10	26	99*	5106
CC(=O)OCC(=O)[C@@]1(O)CC[C@H]2[C@@H]3CCC4=CC(=O)CC[C@]4(C)[C@H]3[C@@H](O)C[C@@]21C	nt	-12	nt	nt	65*!	nt	6269&5317
COC(=O)c1ccc(NC(=O)C2CC(=O)OC2c2ccccc2)cc1 (stereo not drawn)	9	-13	-6	-6	-16	4.6	3957
COc1ccc(N=NC2C(=O)N(c3ccccc3)N=C2C)cc1 (stereo not drawn)	10	-1	-3	1	-1	-0.8	3567
CCSc1nnc([C@@H](N)Cc2c[nH]c3ccccc23)o1	-7	-10	0	10	-21	6.8	9078
COc1ccc(/C(N)=N/OC(=O)c2ccc(Br)o2)cc1	6	1	-1	-10	-77	0.5	4283
CCC(=O)N1N=C(c2ccc(C)o2)CC1c1ccc(OC)cc1 (stereo not drawn)	12	0	2	8	-13	0.4	4091
CCOCc1[nH]c(=S)[nH]c(=O)c1Cc1ccc(OC(C)C)cc1	-2	3	1	5	-7	4.2	4637
CCOC(=O)C1(CC2CC2)CCN(Cc2cnc(-c3ccc(OC)cc3)nc2)CC1	-3	-6	-1	7	-46	2.1	3470
CC(C)COC(=NS(=O)(=O)c1ccccc1)c1ccccc1	-2	nt	6	2	nt	7.8	nt
COc1ccc(Cl)cc1C(=O)Nc1ccc2c(c1)OCO2	-3	-2	-1	6	-32	2.9	8744
Oc1[nH]c2ccc(Br)cc2c1N=NC(=S)N1CCOCC1	37	45	39*	20*	31	24	3316
COc1ccc(-c2cc(C)nc(SCc3cccc(C(=O)O)c3)n2)cc1	-4	11	11	6	1	13	2425
c1coc(CSCc2cn3cccnc3n2)c1	-3	-2	10	6	-13	7.3	3324
CC1(C)CC(=O)C2=C(C1)N(c1ccccc1)C(N)=C(C#N)C2c1ccsc1 (stereo not drawn)	2	1	11	4	-20	-12	3161
N#Cc1cc([N+](=O)[O-])ccc1NC(=O)COC(=O)C1CCC(=O)N1 (stereo not drawn)	-4	nt	10	8	-8	7.1	3909
O=C(OCCN1CCCCC1)C1(c2ccccc2)CCCC1	nt	7	nt	nt	-16	nt	4465
COc1ccc(C2C(C(=O)NCc3ccccn3)c3ccccc3C(=O)N2C)cc1OC (stereo not drawn)	-1	3	7	6	-29	3.1	3467
COc1cccc(CNC(=O)CCN2C(=O)[C@@H]3Cc4ccccc4CN3C2=O)c1	-5	-4	-12	-7	-10	-3.8	5059
c1cncc(-c2nc(NCC3CCCO3)c3ccccc3n2)c1 (stereo not drawn)	-12	-10	-15	-6	-13	-3.6	4553
O=C(N1CCOCC1)N(Cc1ccccc1)c1ccccn1	-3	1	11	13	-20	3.9	3710
Cc1ccc(C(=O)CSc2nccn2-c2ccccc2)cc1	-18	-3	nt	nt	-28	2.0	3993
CCN1CC2=C(OC(N)=C(C#N)C2c2cccs2)/C(=C\c2cccs2)C1 (stereo not drawn)	-8	-4	-1	-11	-28	-1.2	10548
COc1ccc(NCC(=O)NN=C/C=C\c2ccccc2)cc1	-7	nt	-6	7	nt	-1.7	nt
c1cncc(CNc2ccc3c(c2)OCO3)c1	-5	-3	nt	nt	-13	-0.8	1939
CC(C)n1c(O)c(N=NC(=O)Cn2ccc(C(F)(F)F)n2)c2ccccc21	-3	-10	-8	9	-5	1.1	2466
COc1ccc(-c2c(-c3cc(OC)cc(OC)c3)n(C)c3ccc(-c4cccc5[nH]ccc45)cc23)cc1	-1	nt	14	9	-8	-3.4	3432
CC(C)N(C(=O)[C@H]1C[C@H](CC(=O)NCCCn2ccnc2)C(=O)N2CCc3c([nH]c4cc(-c5ccco5)ccc34)[C@]12C)C(C)C	4	nt	-2	2	-17	-4.9	2830
O=C1NCCOC(=O)[C@H](Cc2ccc(F)cc2)C/C=C\C[C@H]1CC(=O)N(CCO)Cc1ccccc1	1	nt	4	11	7	2.5	3259
COc1ccc(C)cc1N=Nc1ccc(O)c2ncccc12	-14	7	11	0	35	8.4	1844
CCn1cc(C(=O)N2CCCC(C(=O)c3ccc4ccccc4c3)C2)cn1 (stereo not drawn)	3	4	-1	-1	5	3.6	?
COc1ccc(C2C(C#N)=C(N)OC3=C2C(=O)CC(C)C3)c(OC)c1OC (stereo not drawn)	12	-2	9	1	-9	7.6	15892
CN(CC(=O)Nc1ccc(F)cc1)S(=O)(=O)c1ccc2c(c1)c(=O)n(C)c(=O)n2C	1	-3	1	1	-5	1.4	5665
Cc1sc2ncn(CC(=O)NCCCC(=O)N3CCN(Cc4ccc5c(c4)OCO5)CC3)c(=O)c2c1C	5	5	-4	8	-11	7.5	5476
O=C(OCC1OC(n2ccc(=O)[nH]c2=O)C(Cl)C1O)c1ccccc1 (stereo not drawn)	-2	1	1	11	-30	1.4	3796
Cc1cc(=O)oc2cc(O[C@@H]3O[C@H](CO)[C@@H](O)[C@H](O)[C@H]3O)ccc12	7	-3	0	5	-8	4.5	3529
COc1cc(C)c(/C=C(\C#N)C(=O)Nc2cccc(C)c2)cc1C(C)C	-10	-8	2	2	-19	12	1943
Cc1cc(=O)c(C(=O)O)cn1-c1ccc(C(C)C)cc1	13	4	-7	2	-27	6.1	2111
Cc1cc(O)c(-c2cc(C(=O)NCc3ccc4c(c3)OCO4)[nH]n2)cc1C	-5	2	14	-2	-13	6.9	?
O/N=C1\CCC2CN(C3CCCCC3)CC2C1 (stereo not drawn)	nt	-3	nt	nt	-2	nt	2468
CC1Cn2c(nnc2-c2cc3ccccc3cc2O)S1 (stereo not drawn)	10	-15	4	1	-7	2.2	6582
CCc1ccccc1S(=O)(=O)Cc1ccc(C(=O)NC(C)C)o1	4	-8	nt	nt	-2	4.3	4653
Cc1ccc(N2CCN(c3ccc(C)cc3)C2c2ccncc2)cc1	9	-1	nt	nt	-28	-13	2854
COc1ccc(/C([O-])=C(/C(=S)Nc2ccc(C)c(C)c2)n2c[n+](C)c3ccccc32)cc1OC	3	0	7	8	-7	0.3	3432
CCOC(=O)c1c(NC(=O)CSc2n[nH]c(-c3ccco3)n2)sc(C)c1C	4	-2	7	6	-21	13	7950
COc1cc(C)nc(NS(=O)(=O)c2ccccc2Cl)n1	1	-10	8	14	2	3.4	3747
CN1C(=O)C(=Cc2cc([N+](=O)[O-])ccc2N2CCCCC2)C(=O)N(C)C1=O	-2	-13	8	-2	-19	1.4	4755
COC(=O)Cn1c(O)c(N=NC(=O)CNC(=O)c2ccc3c(c2)OCCO3)c2ccccc21	1	-1	-5	1	-21	2.7	5660
COc1cccc(COCCN2CCN(S(=O)(=O)c3ccc(C)cc3)CCC2=O)c1	-5	-10	3	6	-11	5.0	3772
Cn1c(=O)c2sccc2n2c(CCCC(=O)N3CCN(c4ccccn4)CC3)nnc12	0	0	-3	7	-13	-0.4	5472
COc1cc(OC)nc(NC(=O)CN2CCN(c3ccc(F)cc3)CC2)n1	4	0	2	5	-3	-1.2	10789
COc1ccc(S(=O)(=O)NCC(=O)NCc2cc(=O)n(C)c(=O)n2C)cc1F	-5	12	-12	-3	-7	-2.5	6145
Cc1ccc(NC(=O)NCCCN2CCOCC2)cc1	-12	10	nt	nt	-34	0.9	4870
O=C(NC(=S)Nc1cccc(Cl)c1N1CCCCC1)c1ccc2c(c1)OCCO2	49	22	-5	-4	-39	-12	2555
COc1ccc(C=NNC(=O)c2c(C)nc3ccc(Br)cn23)cc1OC	2	nt	4	-2	nt	0.3	nt
CN1CCc2nc(SCC(=O)OC(C)(C)C)c(C#N)cc2C1	3	3	nt	nt	-49	3.1	2057
O=C(CSc1ccccc1C(=O)NCCCN1CCCC1=O)NCc1ccco1	2	-2	nt	nt	-19	-13	2809
COc1ccc(C(=O)NNC(=O)C(=O)NCc2ccccc2)cc1	5	2	14	5	-21	1.0	4366
Cc1ccc(C(=O)CSc2nnc(-c3ccco3)o2)o1	15	5	14	10	-21	6.6	4929
Remaining list, next part.
SMILES	Sa ugtP lethal	BJeLR lethal	Mtb hypoxia inh	Mtb hypoxia inh growth	PrP 5UTR inh	RN4220 kill	Autofluor counter
CNCc1cc(Cl)cc(OC)c1OC(C)C	2	-2	14	5	-6	3.9	3186
O=C(CCNC(=O)Cn1cnc2ccccc2c1=O)NCC1COc2ccccc2O1 (stereo not drawn)	10	4	16	8	-15	3.6	4724
COCCC1CCCCN1C(=O)c1cc(COc2ccc(-n3cncn3)cc2)on1 (stereo not drawn)	nt	11	nt	nt	-4	nt	35235*
CCOc1ccccc1CNS(=O)(=O)c1ccc2c(c1)C(C)(C)C(=O)N2C	1	-4	8	2	-29	1.9	5727
CC(=NNC(=O)CNC(=O)C1COc2ccccc2O1)c1cccc(O)c1 (stereo not drawn)	-5	nt	5	0	nt	4.5	nt
COc1ccc(C(=O)O)cc1S(=O)(=O)Nc1cccc(C)c1	1	15	3	4	-14	-0.9	3294
O=C(Cn1cnc2c(nnn2-c2cccc(Cl)c2)c1=O)NCc1ccccc1	-2	-9	4	13	-17	-14	5564
CN(C)CC(C)(C)CNC(=S)Nc1ccc(S(=O)(=O)N2CCOCC2)cc1	1	-1	15	7	0	2.5	2556
Cc1cccc(NC(=O)c2c([N+](=O)[O-])c(C(C)(C)C)nn2C)c1	5	-19	2	4	11	13	2270
O=C(NCCc1ccco1)c1cc(COc2cccc(C(F)(F)F)c2)on1	-7	1	6	1	-8	2.7	5959
CCOC(=O)CSc1nc2c(sc(=S)n2-c2ccccc2)c(=O)[nH]1	12	-5	2	12	-24	2.0	2257
Cc1cc(C)n(CCC(=O)NN=Cc2ccc(Cl)c([N+](=O)[O-])c2)n1	6	nt	3	2	nt	1.7	nt
Cc1ccc(C)c(-n2c(SCC(=O)Nc3nnc(C)s3)nnc2-c2ccoc2C)c1	4	-4	nt	nt	-13	-2.3	4589
Cc1ccc(NC(=O)c2ccc(S(=O)(=O)NCc3ccco3)cc2)cc1	-6	-2	2	-1	-12	-0.6	3161
COc1ccccc1Nc1nnc(SCC(=O)NC2CC2)s1	0	nt	-4	7	-6	-1.6	?

Next section; it opens with the six that closed the last part.
SMILES	Sa ugtP lethal	BJeLR lethal	Mtb hypoxia inh	Mtb hypoxia inh growth	PrP 5UTR inh	RN4220 kill	Autofluor counter
O=C(NCCc1ccco1)c1cc(COc2cccc(C(F)(F)F)c2)on1	-7	1	6	1	-8	2.7	5959
CCOC(=O)CSc1nc2c(sc(=S)n2-c2ccccc2)c(=O)[nH]1	12	-5	2	12	-24	2.0	2257
Cc1cc(C)n(CCC(=O)NN=Cc2ccc(Cl)c([N+](=O)[O-])c2)n1	6	nt	3	2	nt	1.7	nt
Cc1ccc(C)c(-n2c(SCC(=O)Nc3nnc(C)s3)nnc2-c2ccoc2C)c1	4	-4	nt	nt	-13	-2.3	4589
Cc1ccc(NC(=O)c2ccc(S(=O)(=O)NCc3ccco3)cc2)cc1	-6	-2	2	-1	-12	-0.6	3161
COc1ccccc1Nc1nnc(SCC(=O)NC2CC2)s1	0	nt	-4	7	-6	-1.6	?
CCCCCC(=O)NC(NC(=S)N1CCOCC1)C(Cl)(Cl)Cl (stereo not drawn)	-7	-1	3	4	-20	2.9	2522
COc1ccc(C(CNC(=O)c2ccc(Cl)s2)N2CCOCC2)cc1 (stereo not drawn)	7	8	7	11	-17	1.0	6506
O=C(CCc1ccccc1)N1CCN(c2ccc(Cl)cc2)CC1	10	3	nt	nt	-31	5.3	11949
O=C(COC(=O)c1ccccc1NS(=O)(=O)c1cccs1)NC1CCCCC1	6	17	9	3	-10	5.8	2759
O=C(CCNS(=O)(=O)c1ccc(Br)cc1)NCc1ccc2c(c1)OCO2	11	-2	6	-4	-37	-1.9	24584*
CCN(CC)C(=S)SCC(=O)Nc1ncc2c(n1)CCCC2=O	7	2	-5	-5	-16	2.7	3573
CC(C)CNC(=O)c1nn(Cc2ccccc2)c(=O)c2ccccc12	0	-5	-5	3	-14	1.7	5543
CSC1=NC2(CCCCC2)C2=C(CCCC2)N1	1	6	15	4	-10	3.5	11264

This is a random part of the collection; any-hit rate near 4%.
